# High-throughput results (PubChem)
# Lassa entry inh = qHTS for Inhibitors of binding or entry into cells for Lassa Virus | Lassa virus pseudotype entry inhibition, cell reporter; control for the full effect not named in the record | Potency, µM (doses to about 37.9 µM), without a hit: at the top dose activity change, negative = inhibition, hits mostly inhibitors | 1.2% of 300,000 active | AID 540256, 2011; active means well fitted inhibition curve with a large enough effect; inconclusive means small, poorly fitted or top-dose-only effect, or effect the other way; inactive means flat fitted curve, though single readings scatter; tested in HEK293 cells; also: nearly all actives have a fitted effect of over 50% in size; luciferase read-out
# StopGo reporter = High Throughput Screening for Foot and Mouth Disease Virus Antivirals. Potency, µM (series often up to 57.9 µM), for inactives: at the top dose signal change, negative = less light. AID 1159524, 2015. 1.2% of 410,000 active. human cells with a luciferase reporter of 2A StopGo recoding; control for the full effect not named in the record; active = well fitted falling curve with a large enough effect; inconclusive = small, poorly fitted or top-dose-only effect; inactive = no such curve, though single readings can be large or run the other way; tested in HEK293T cells; also: nearly all actives have a fitted effect of over 45% in size; luciferase light after 4 h
# RE007 growth inh = qHTS Assay for Inhibitors of the HIV-1 protein Vpr; Potency, µM (titrated, usually from 92.2 µM), for inactives: at the top dose activity change, negative = less growth; 0.21% of 360,000 active; S. pombe RE007 Vpr strain, BacTiter-Glo ATP luminescence, 24 h; control for the full effect not named in the record; active = well fitted falling curve with a large enough effect; inconclusive = small, poorly fitted or top-dose-only effect; inactive = no such curve, though single readings can be large or run the other way;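 also: nearly all actives have a fitted effect of over 50% in size; the assay follows cell death caused by Vpr and the record does not say whether a fall means rescue or toxicity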
#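 Fission yeast RE007 carrying one integrated HIV-1 vpr copy, seeded at OD 0.01 in PMG+AL medium with 23 nL pinned compound. Grown 24 h at 30 degrees; viability read by BacTiter-Glo luminescence after 5 min.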
# MARV entry inh = qHTS for inhibitors of binding or entry into cells for Marburg Virus; Marburg virus pseudotyped entry inhibition, cell reporter; control for the full effect not named in the record; about a third of the inactives were read at about 46 µM; Potency, µM (titrated, usually from 37.8 µM), for the others: at the top dose activity change, negative = inhibition, most hits filed as inhibitors; 1.8% of 300,000 active; active = well fitted inhibition curve with a large enough effect; inconclusive = small, poorly fitted or top-dose-only effect, or effect the other way; inactive = flat fitted curve, though single readings scatter; tested in HEK293 cells; about a fifth of its hits are not listed in these tables; also: luciferase read-out
# * = called active by the depositor; u = inconclusive; x = no result given; & = joins results of further samples; [ ] = dose if it differs, or a comment. % is scaled to controls: 0 for no effect and ±100 for the full control effect; potency is read from the fitted curve at half-maximal effect. Some of the compounds tested (hit frequency here may not be typical).
SMILES,Lassa entry inh,StopGo reporter,RE007 growth inh,MARV entry inh
O=C(NCc1ccccc1)c1ccc(NC(=O)C2CCCC2)cc1,5.4%[46.1 µM],5.4%,7.4%,x
O=[N+]([O-])c1ccc(CN2CC(N3CCC(c4ccccc4)CC3)CS2(=O)=O)cc1 (stereo not drawn),u,u,-21.9%,x
CC(C)C1C(=O)N(Cc2cn(CCC3OCCO3)nn2)CCS(=O)(=O)N1Cc1ccc(-c2ccc(F)cc2Cl)cc1 (stereo not drawn),u,-28.7%,4.8%,x
Cc1ccc(S(=O)(=O)N2CCC(=O)N([C@H](COCc3cccc(C(F)(F)F)c3)C(C)C)CC2)cc1,u,-0.1%,2.5%,x
CCCCN1CC(COCc2ccccc2)Oc2cccc(F)c2S1(=O)=O (stereo not drawn),6.9%[46.1 µM],-19.3%,0.3%,x
COc1ccc(-c2cc3c(c4c2ccn4C)C2CCC3O2)cc1OC (stereo not drawn),12.2%[46.1 µM],-24.9%,-10.4%,x
COc1ccccc1N1CCN(Cc2cc(=O)oc3cc(C)ccc23)CC1,u,u,7.5%,x
Cc1ccc(-c2ccc(CN3C(C(C)C)C(=O)N(Cc4cn(CCC5OCCO5)nn4)CCS3(=O)=O)cc2)cc1 (stereo not drawn),u,u,8.7%,x
CN(C)CCN1CCN(C2CN(Cc3ccccc3)S(=O)(=O)C2)CC1 (stereo not drawn),u,-11.8%,3.3%,x
Cc1ccc([C@H]2C[C@@H](n3cc(COC(=O)c4ccccc4)nn3)[C@H](O)CN2C(=O)C2CCCCC2)cc1,-39.7%[46.1 µM],0.3%,5.2%,x
Cc1ccc([C@H]2C[C@@H](O)[C@H](n3cc(C4CC4)nn3)CN2Cc2cccs2)cc1,u,-22.8%,8.1%,x
O=C(NCCCCc1ccccc1)c1cccc(NC(=O)C2CCCC2)c1,-21.8%[46.1 µM],-17.2%,-8.7%,x
O=c1cc(CN2CCCCCCC2)c2ccccc2o1,11.6%[46.1 µM],-8.7%,-12.4%,x
Cc1ccc([C@H]2C[C@H](O)[C@@H](n3cc(C4CC4)nn3)CN2C(=O)c2cccs2)cc1,u,-3.8%,3.3%,x
CC(C)CC1C(=O)N(Cc2cn(Cc3ccco3)nn2)CCS(=O)(=O)N1Cc1ccc(-c2ccc(F)nc2)cc1 (stereo not drawn),u,-23.0%,-14.0%,x
Cc1ccc([C@H]2C[C@H](n3cc(-c4ccc(F)cc4)nn3)[C@@H](O)CN2C(=O)C2CCCCC2)cc1,u,3.3%,-1.9%,x
O=C(NCCCc1ccccc1)c1cccc(NC(=O)C2CCCCC2)c1,u,-15.0%,1.9%,x
CC(C)Cc1ccc(CN2C(C(C)C)C(=O)N(Cc3cn(CCC4OCCO4)nn3)CCS2(=O)=O)cc1 (stereo not drawn),u,-22.2%,2.4%,x
COc1ccccc1-c1cc2c(c3c1ccn3C)C1CCC2C1 (stereo not drawn),u,-6.7%,-0.8%,x
CN1CCN(C2CN(CCc3ccccc3)S(=O)(=O)C2)CC1 (stereo not drawn),-12.8%[46.1 µM],-18.0%,-18.6%,x
CCCCN1CC(COCc2ccccc2)OCCS1(=O)=O (stereo not drawn),-12.6%[46.1 µM],-20.5%,-7.4%,x
Cc1ccc([C@H]2C[C@@H](n3cc(-c4ccc(F)cc4)nn3)[C@H](O)CN2C(=O)c2cccs2)cc1,-10.4%[46.1 µM],3.4%,4.8%,x
COc1ccc(C=O)c(OCc2cn(CC(=O)c3ccc(O)cc3)nn2)c1,0.4%[46.1 µM],3.7%,1.5%,x
COc1cc2oc(=O)cc(CN(Cc3ccccc3)Cc3ccccc3)c2cc1Cl,3.1%[46.1 µM],-14.6%,15.6%,x
O=S1(=O)CC(N2CCN(CC3CC3)CC2)CN1C1CCCC1 (stereo not drawn),15.6%[46.1 µM],-8.8%,2.3%,x
COc1ccc([C@H]2C[C@@H](n3cc(COC(=O)c4ccccc4)nn3)[C@H](O)CN2Cc2cccs2)cc1,u,-20.7%,-6.5%,x
Cc1ccc(S(=O)(=O)N2CCC(=O)N([C@H](COCc3ccccc3)C(C)C)CC2)cc1,-26.5%[46.1 µM],-26.7%,4.0%,x
C=CCN(CC=C)Cc1cc(=O)oc2cc(C)cc(C)c12,11.5%[46.1 µM],-0.8%,-18.9%,x
COCOCCn1cc(CN2CCS(=O)(=O)N(Cc3ccc(-c4ccc(Cl)c(Cl)c4)cc3)C(C)C2=O)nn1 (stereo not drawn),-7.2%[46.1 µM],u,24.7%,x
O=S1(=O)CC(N2CCN(CCO)CC2)CN1Cc1cn(Cc2ccccc2C(F)(F)F)nn1 (stereo not drawn),u,-12.5%,-3.3%,x
CC(C)C1C(=O)N(Cc2cn(CCC3OCCO3)nn2)CCS(=O)(=O)N1Cc1ccc(-c2cccc(CO)c2)cc1 (stereo not drawn),u,-23.3%,-5.3%,x
COC[C@H](NS(=O)(=O)c1ccc(Br)cc1F)[C@@H](O)c1ccccc1,u,-20.0%,16.8%,x
O=C(Cn1cc(COc2cc(F)cc(F)c2)nn1)c1ccc(O)cc1,0.0%[46.1 µM],6.8%,11.0%,x
CCCCCCCCNCCS(=O)(=O)NCc1ccccc1,9.1%[46.1 µM],-26.9%,-19.0%,x
O=C(NCCCc1ccccc1)c1cccc(NC(=O)C2CC2)c1,-11.5%[46.1 µM],4.0%,0.1%,x
Cc1ccc([C@H]2C[C@H](O)[C@@H](n3cc(-c4ccc(F)cc4)nn3)CN2CC2CCCCC2)cc1,28.1µM*,-5.9%,7.2%,x
COc1ccc(NC(=O)C[C@H]2C(=O)N(CCc3ccccc3)C[C@@H]2CSC)cc1,4.1%[46.1 µM],-17.3%,-24.2%,x
O=S1(=O)CC(N2CCC(c3ccccc3)CC2)CN1Cc1ccc(F)cc1 (stereo not drawn),-33.8%[46.1 µM],-9.1%,-10.1%,x
O=C(Cn1cc(COc2cccc([N+](=O)[O-])c2)nn1)c1ccc(O)cc1,u,-7.3%,1.7%,x
Cc1cc(C)c2c(CN(Cc3ccccc3)Cc3ccccc3)cc(=O)oc2c1,22.3µM*,-9.0%,16.8%,x
O=C(Nc1ccc(C(=O)N2CCCC2)cc1)C1CCCC1,9.2%[46.1 µM],22.2%,0.2%,x
COc1ccc(NC(=O)C[C@H]2C(=O)N(Cc3ccccc3)C[C@@H]2Cc2ccccc2)cc1,u,-8.1%,-9.7%,x
CC1CN1c1cc2c(c3c1ccn3C)C1CCC2C1 (stereo not drawn),u,u,-0.6%,x
CCCCN1C[C@H](c2ccccc2)[C@@H](CC(=O)NC)C1=O,u,-20.1%,-6.7%,x
CCCCN1CC(N2CCN(Cc3ccccc3)CC2)CS1(=O)=O (stereo not drawn),x,-21.6%,-16.6%,u
COCCN1C(=O)N[C@@H](c2cccc(F)c2)C(C(C)=O)=C1C,x,-17.6%,-9.8%,-6.0%&-6.0%[14.2 µM]
CCN1C(=O)N[C@@H](c2ccco2)C(C(C)=O)=C1C,x,-10.8%,-4.1%,25.6%&25.6%[14.2 µM]
Cc1ccc(-c2ccc(CN3C(C(C)C)C(=O)N(Cc4cn(Cc5ccco5)nn4)CCS3(=O)=O)cc2)cc1 (stereo not drawn),x,u,9.3%,u

# Structures listed so far containing a furan ring, fused or not, in the order listed:
SMILES,Lassa entry inh,StopGo reporter,RE007 growth inh,MARV entry inh
CC(C)CC1C(=O)N(Cc2cn(Cc3ccco3)nn2)CCS(=O)(=O)N1Cc1ccc(-c2ccc(F)nc2)cc1 (stereo not drawn),u,-23.0%,-14.0%,x
CCN1C(=O)N[C@@H](c2ccco2)C(C(C)=O)=C1C,x,-10.8%,-4.1%,25.6%&25.6%[14.2 µM]
Cc1ccc(-c2ccc(CN3C(C(C)C)C(=O)N(Cc4cn(Cc5ccco5)nn4)CCS3(=O)=O)cc2)cc1 (stereo not drawn),x,u,9.3%,u

# (further entries)
SMILES,Lassa entry inh,StopGo reporter,RE007 growth inh,MARV entry inh
CC#CCN1C(=O)N[C@@H](c2ccccc2)C(C(=O)OC)=C1C,x,-3.5%,0.5%,u
COCCN1C(=O)N[C@@H](c2cccc(C(F)(F)F)c2)[C@@H](C(=O)OC)[C@H]1C,x,-4.6%,2.1%,-4.8%&-4.8%&-4.8%[14.2 µM]
CC(C)(C)OC(=O)N1CCCC(C(=O)Nc2cccc(C(=O)NCc3ccccc3)c2)C1 (stereo not drawn),x,u,-6.0%,u
Cc1ccc([C@H]2C[C@H](n3cc(COC(=O)c4ccccc4)nn3)[C@@H](O)CN2CC2CCCCC2)cc1,x,-13.8%,6.5%,u
Cc1ccc([C@H]2C[C@@H](O)[C@H](n3cc(COC(=O)c4ccccc4)nn3)CN2Cc2cccs2)cc1,x,-12.6%,-12.0%,u
Cc1cccc(CN2CCN(C3CN(C4CCCCC4)S(=O)(=O)C3)CC2)c1 (stereo not drawn),x,0.0%,-2.3%,u
O=S1(=O)CC(N2CCC(Cc3ccccc3)CC2)CN1C1CCCC1 (stereo not drawn),x,-13.5%,-9.7%,u
COc1ccc(N2C[C@H](C)[C@@H](CC(=O)Nc3ccc(Br)cc3)C2=O)cc1,x,0.0%,6.0%,u
COC/C=C/C1=CC2=CC(=O)C(C)(OC(=O)c3cnc4ccccc4n3)C(=O)C2=CN1C1CC1 (stereo not drawn),x,-24.2%,10.0%,u
COc1ccc([C@H]2C[C@@H](n3cc(-c4ccc(F)cc4)nn3)[C@H](O)CN2Cc2cccs2)cc1,x,16.3%,5.8%,u
CNC(=O)C[C@H]1C(=O)N(C2CCCCC2)C[C@@H]1CSC,x,u,10.4%,u
CC1C(=O)N(Cc2cn(Cc3ccco3)nn2)CCS(=O)(=O)N1Cc1ccc(-c2ccc(F)nc2)cc1 (stereo not drawn),x,-20.1%,-13.8%,u
COC(=O)C1=C(C)N(Cc2ccco2)C(=O)N[C@@H]1c1ccco1,x,-8.1%,-1.2%,0.3%&0.3%[14.2 µM]
O=C(Nc1ccc(S(=O)(=O)N2CCOCC2)cc1)C1CCN(S(=O)(=O)c2ccc(Cl)cc2)CC1,x,-12.2%,-6.1%,3.3%
COc1ccc(NC(=O)CN(C)C(=O)c2cccc(S(=O)(=O)N3CCN(c4ccc(F)cc4)CC3)c2)cc1,x,u,-7.3%,-1.4%
CC1(c2ccccc2)NC(=O)N(CC(=O)N2CCN(S(=O)(=O)c3cccc(C(F)(F)F)c3)CC2)C1=O (stereo not drawn),x,-25.2%,9.3%,-2.3%
Cc1ccc(S(=O)(=O)NCC(=O)OCC(=O)c2ccc(S(=O)(=O)N3CCCCC3)cc2)cc1C,x,-9.7%,5.4%,2.8%
O=C(Cn1cc(COc2ccc(Br)cc2[N+](=O)[O-])nn1)c1ccc(O)cc1,x,-11.4%,-4.4%,u
O=C(Cc1ccc(NC(=O)C2CCCN(C(=O)CCc3ccccc3)C2)cc1)Nc1ccc(C(=O)N2CCOCC2)cc1 (stereo not drawn),x,0.0%,8.7%,-0.4%
O=S1(=O)CC(N2CC=CC2)CN1C1CCCCC1 (stereo not drawn),x,-8.8%,16.1%,u
O=C(NCCCCc1ccccc1)c1cccc(NC(=O)C2CCCCC2)c1,x,-12.1%,-3.5%,u
COC(=O)C1=C(C(=O)OC)[C@@H]2N(C)c3ccccc3[C@@]23C[C@@H](C(=O)OC)N(C(=O)c2ccco2)C3=N1,x,u,9.5%,u
CC1C(=O)N(Cc2cn(CCC3OCCO3)nn2)CCS(=O)(=O)N1Cc1ccc(-c2ccccc2)cc1 (stereo not drawn),x,u,6.9%,u
CC(C)C1C(=O)N(Cc2cn(CCC3OCCCO3)nn2)CCS(=O)(=O)N1Cc1ccc(-c2ccc(Cl)cc2)cc1 (stereo not drawn),x,10.2%,5.5%,u
Cc1ccc([C@H]2C[C@@H](n3cc(C4CC4)nn3)[C@H](O)CN2C(=O)c2cccs2)cc1,x,-4.0%,16.6%,u
COc1ccccc1NS(=O)(=O)c1ccc(C)c(C(=O)NCC(c2cccs2)N2CCOCC2)c1 (stereo not drawn),x,64.9%[activator],14.6%,3.8%
COc1ccc(-c2cc3c(c4c2ccn4C)C2CCC3C2)cn1 (stereo not drawn),x,-18.0%,-27.8%,u
COC(=O)[C@@]1(Cc2ccccc2)[C@H]2C(=O)N(C)C(=O)[C@H]2[C@H]2CN(C)C(=NCc3ccccc3)N21,x,3.8%,-12.7%,0.1%
